Source: PubChem BioAssay
HPGD block: blocks human HPGD enzyme activity. P15428. purified HPGD, NADH fluorescence kinetic, PGE2 substrate. Potency, µM, for the others: at the top dose activity change, negative = inhibition, usual class: inhibitors. hit rate 4.3% among 150,000. AID 894; active = well fitted inhibition curve with a large enough effect (not every such curve was filed as active); inconclusive = small, poorly fitted or top-dose-only effect, or another doubt; inactive = no such curve, though single readings can be large or run the other way;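 also: top concentration of the series not given in the record; plate controls included wells without enzyme; inactives centre near -10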
Target sequence (P15428 whole entry, looked up): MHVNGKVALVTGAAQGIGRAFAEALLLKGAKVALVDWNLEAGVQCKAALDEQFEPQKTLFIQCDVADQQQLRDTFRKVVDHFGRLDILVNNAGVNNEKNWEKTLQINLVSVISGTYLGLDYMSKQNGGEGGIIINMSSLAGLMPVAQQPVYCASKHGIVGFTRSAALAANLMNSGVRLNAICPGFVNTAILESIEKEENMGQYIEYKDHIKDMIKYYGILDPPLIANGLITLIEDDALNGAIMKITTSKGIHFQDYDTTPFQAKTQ
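20 nM HPGD preincubated 15 min at room temperature with compound in 50 mM Tris-HCl pH 8, 0.01% Tween 20. Started with 1 mM NAD+ and 30 uM prostaglandin E2; NADH fluorescence (360/450 nm) read 5 times over 30-s intervals, last minus first.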
Numbers without * were called inactive; ? = inconclusive; & = joins results of further samples. % is scaled to controls: 0 for no effect and ±100 for the full control effect; potency is read from the fitted curve at half-maximal effect.

SMILES	HPGD block
CN1CCC(=C2c3ccccc3CC(=O)c3sccc32)CC1	-1%&-1%&-8%&-1%&-10%
CN1CCN(c2c(F)cc3c(=O)c(C(=O)O)cn4c3c2SCC4)CC1	?
C[C@@H]1[C@H](C)CC[C@@]2(C(=O)O[C@H]3O[C@@H](CO[C@H]4O[C@@H](CO)[C@@H](O[C@H]5O[C@@H](C)[C@@H](O)[C@@H](O)[C@@H]5O)[C@@H](O)[C@@H]4O)[C@@H](O)[C@@H](O)[C@@H]3O)CC[C@]3(C)C(=CC[C@H]4[C@@]5(C)C[C@@H](O)[C@@H](O)[C@](C)(CO)[C@@H]5CC[C@@]43C)[C@@H]12	-3%
Cc1oncc1C(=O)Nc1ccc(C(F)(F)F)cc1	-2%&-19%&-13%&-5%&-1%
CCOc1ccc(NC(=S)N2CCC(C(O)(c3ccccc3)c3ccccc3)CC2)cc1	-12%
CN1CCN(CCCN2c3ccccc3Sc3ccc(S(=O)(=O)N(C)C)cc32)CC1	1%
NC(=O)c1ccc(-c2nc(-c3ccc4c(c3)OCO4)c(-c3ccccn3)[nH]2)cc1	?
O=C(NCCN1CCOCC1)c1ccc(Cl)cc1	-8%
CN(C)CCO[C@](C)(c1ccccc1)c1ccccn1	-6%
CCCCOC(=O)c1ccc(N)cc1	-20%&-6%&-16%&-11%
CC(=O)O[C@]1(C(C)=O)CC[C@H]2C3C=C(Cl)C4=CC(=O)[C@@H]5C[C@H]5[C@]4(C)C3CC[C@@]21C (some centres undefined)	4%
CN(C)CCC[C@@]1(c2ccc(F)cc2)OCc2cc(C#N)ccc21	-5%&1%
O=C1c2ccccc2C(=O)c2c(O)c(O)cc(O)c21	25µM*
Cc1nc2c([nH]1)c(=O)n(C)c(=O)n2Cc1ccco1	5%
Cc1cn([C@H]2C[C@H](O)[C@@H](CO)O2)c(=O)[nH]c1=O	-11%&-5%
COc1c(O)cc2c(c1O)[C@@H]1O[C@@H](CO)[C@@H](O)[C@@H](O)[C@@H]1OC2=O	-1%
COc1ccc([C@@H]2CNC(=O)C2)cc1OC1CCCC1	-8%&-8%&-1%&-2%
CN1CCC(Nc2ncc3ncnc(Nc4ccc(F)c(Cl)c4)c3n2)CC1	?
OCC(O)CN1CCN(c2ccccc2)CC1 (centres undefined)	-7%&-9%
CN=C(NC#N)Nc1ccc(C2=NNC(=O)CC2C)cc1 (centres undefined)	-8%
COc1ccc(S(=O)(=O)Nc2nnc(CC(C)C)s2)cc1	-12%
COc1cc(NC(=O)c2cc(C3CC3)on2)c(OC)cc1Cl	?
O=C(O)[C@@H]1[C@@H]2C[C@H]3c4[nH]c5ccccc5c4CCN3C[C@@H]2CC[C@@H]1O	-26%
Nc1cc(=O)[nH]c(N)n1	-13%&-13%
C[C@H]1C[C@@H]2[C@H]3CCC4=CC(=O)C=C[C@@]4(C)[C@@]3(Cl)[C@@H](O)C[C@]2(C)[C@]1(OC(=O)c1ccco1)C(=O)CCl	-6%

Other results
SMILES	HPGD block
CN(C)CCOC(=O)C(c1ccccc1)C1(O)CCCC1 (centres undefined)	-9%&-12%
CCCN(CCC)C(=O)C(CCC(=O)O)NC(=O)c1ccccc1 (centres undefined)	-4%&4%&-3%
COC(=O)Nc1nc2ccc(S(=O)c3ccccc3)cc2[nH]1 (centres undefined)	?
CCN(CCCCOC(=O)c1ccc(OC)c(OC)c1)[C@@H](C)Cc1ccc(OC)cc1	-6%
CCCc1cc(C(N)=S)ccn1	-2%&-4%
O=C1CCc2cc(OCCCCc3nnnn3C3CCCCC3)ccc2N1	-28%&-11%&-10%&-3%
CC(C)(C(=O)c1cccnc1)c1cccnc1	-2%
COc1ccc(Sc2ccc(NC(=O)c3ccccc3Cl)cc2C#N)cc1	?
COc1ccc(-c2oc3c(CC=C(C)C)c(O[C@H]4OC(CO)C(O)C(O)C4O)cc(O)c3c(=O)c2O[C@@H]2OC(C)C(O)C(O)C2O)cc1 (some centres undefined)	-7%
CCOC(=O)Nc1ccc(NCc2ccc(F)cc2)nc1N	?
CCN(CC)CCOC(=O)C(c1ccccc1)c1ccccc1	-1%&-7%&5%
CCc1cc(-c2n[nH]c(C)c2-c2ccc3c(c2)OCCO3)c(O)cc1O	-14%
Oc1ccc([C@@H]2CNCCc3c2cc(O)c(O)c3Cl)cc1	-1%
Cc1ccsc1/C=C/C1=NCCCN1C	-8%&-2%
NC(=O)c1ccc([N+](=O)[O-])cc1Cl	-18%
CCC(Cc1c(I)cc(I)c(N)c1I)C(=O)O (centres undefined)	-4%
NC(=O)NC(=O)Cc1ccccc1	-2%
COc1cc(C(=O)NCCCCCC(=O)O)cc(OC)c1OC	-9%
COc1cc(C)nc(-n2nc(C)cc2OC)n1	-8%&-7%
CCCN(CCC)C(=O)[C@@H](CCC(=O)O)NC(=O)c1ccccc1	-7%
CC(C)[C@@H]1C(=O)N(S(C)(=O)=O)[C@H]2CCN(C(=O)/C=C\CN3CCCCC3)[C@@H]12	5%
O=C(c1ccccc1)c1ccc2n1CCC2C(=O)O (centres undefined)	-22%&-13%&-16%
CC1(C)Oc2ccc(C#N)cc2[C@@H](N2CCCC2=O)[C@@H]1O	-12%
CC1(C)OC2CC(=O)OC[C@@]23C1CC(=O)[C@]1(C)C3CC[C@@]2(C)C(c3ccoc3)OC(=O)C3O[C@@]321 (some centres undefined)	-8%
Cc1cc(O)c2c(c1)C(=O)c1cccc(O)c1C2=O	-6%&-7%&-5%&-18%

Additional results.
SMILES	HPGD block
C[C@@H](Cc1cccc(C(F)(F)F)c1)NCCOC(=O)c1ccccc1	-7%
CCOC(=O)Nc1ccc2c(c1)N(C(=O)CCN1CCOCC1)c1ccccc1S2	-3%&-6%
CCn1cc(C(=O)O)c(=O)c2cc(F)c(N3CCN[C@@H](C)C3)c(F)c21	?
Cc1ccc(C(=O)C(C)CN2CCCCC2)cc1 (centres undefined)	-8%
C#C[C@]1(O)CC[C@H]2[C@@H]3CCC4=CC(=O)CC[C@@H]4[C@H]3CC[C@@]21CC	0%
CC1(C)Oc2ccc(C#N)cc2[C@H](N2CCCC2=O)[C@H]1O	-16%&-17%
CC[C@@]12CCCN3CCc4c(n(c5ccccc45)[C@](O)(C(=O)OC)C1)C32 (some centres undefined)	-5%
CC(C)(CO)[C@@H](O)C(=O)NCCCO	-11%&-2%

Not all compounds are listed (hit frequency here may not be typical).
